Vif TR-FRET = inhibitors of Vif binding to APOBEC3G peptide, primary screen, biochemical, TR-FRET, GST-Vif 1-94, biotin-A3G peptide, dose response retest (AID 1117319). TR-FRET GST-Vif / biotin-A3G peptide binding; higher % means a stronger effect; test concentration not given here; strong numbers were not always called active. one-dose inhibition, %; IC50 in µM for titrated hits. 0.57% of 260,000 active;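 active = above the screen mean plus three standard deviations and confirmed in dose response; inconclusive = results disagree or hit not tested in dose response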;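 also: Vif residues 1-94 fused to GST binding biotinylated APOBEC3G peptide 110-148; 0% = full assay without inhibitor and 100% = GST in place of GST-Vif; retest series ran down from 100 µM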
RanGTP-Imp inh = disruptors of Ran-importin-beta complex formation – biochemical, FRET, CFP-Ran, YFP-importin-beta, homogeneous, primary screen; cell-free CFP-Ran/YFP-importin-beta FRET ratio; inhibition, % (no concentration beside the values); 1.1% of 300,000 active;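 active = most replicates above 15%; inconclusive = exactly half above 15%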;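 also: 0% = DMSO wells and 100% = Ran loaded with GDP instead of GTP; wells of about 40 µL received 100 nL stock; the first replicate is given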
AF4-AF9 inh = blocks AF4 peptide binding to human AF9; AlphaScreen, biotin-AF4 peptide binding to FLAG-AF9; AID 651704; inhibition, % at 10 µM; 0.47% of 350,000 active;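 active = every replicate reaching a set inhibition limit, whatever the replicate mean, cut at about 25% in these data; inconclusive = mean inhibition reaches that limit but some replicates miss it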;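 also: 0% = plate neutral control median and 100% = total signal loss; the record names both 10 and 1 µM as test concentration; the first replicate is given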
Target sequence (P42568 whole entry, looked up): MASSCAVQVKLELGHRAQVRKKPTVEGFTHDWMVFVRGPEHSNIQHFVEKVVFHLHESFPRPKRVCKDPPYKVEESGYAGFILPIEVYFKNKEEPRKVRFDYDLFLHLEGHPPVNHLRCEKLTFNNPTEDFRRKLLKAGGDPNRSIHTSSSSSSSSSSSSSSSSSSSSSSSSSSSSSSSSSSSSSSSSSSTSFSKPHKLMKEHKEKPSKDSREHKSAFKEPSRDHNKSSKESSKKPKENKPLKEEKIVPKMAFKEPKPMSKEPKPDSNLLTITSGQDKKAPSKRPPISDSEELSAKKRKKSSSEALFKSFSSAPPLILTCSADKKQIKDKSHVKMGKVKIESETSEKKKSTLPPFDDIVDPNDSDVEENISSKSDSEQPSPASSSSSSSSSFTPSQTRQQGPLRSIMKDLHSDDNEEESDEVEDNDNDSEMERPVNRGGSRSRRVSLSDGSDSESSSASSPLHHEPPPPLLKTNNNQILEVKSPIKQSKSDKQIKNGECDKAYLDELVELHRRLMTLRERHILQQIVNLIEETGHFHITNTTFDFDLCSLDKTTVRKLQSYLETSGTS
Calb FLC = C. albicans growth modulation with fluconazole; C. albicans CaCi-2 (fluconazole-resistant clinical isolate) + fluconazole, Alamar Blue growth, 48 h; growth inhibition, % (no concentration beside the values); 0.57% of 300,000 active; AID 1979;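 active = most replicates above 75%; inconclusive = exactly half above 75%; inactive = most below 75%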;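 also: all wells also contain fluconazole at 8 µg/ml as a sub-toxic cotreatment; 0% = median of DMSO wells and 100% = median of geldanamycin control wells; wells of about 8 µL received 7.5 nL stock; the first replicate is given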
LANA-H2B inh = blocks KSHV LANA binding to histone H2A/H2B | Q9QR71 | cell-free LANA-H2A/H2B peptide, fluorescence polarization | inhibition, % (test concentration not listed) | 0.6% of 320,000 active | AID 2629; in the data active = inhibition mostly above about 10%, no sharp cut-off; inactive = mostly below about 6.7%;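 also: stock transfer was 7.5 nL into about 10 µL; 0% = median of vehicle wells and 100% = median of positive control wells; one replicate is shown; the record names a cut of 25% in any replicate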
Beta apoptosis = blocks beta cell apoptosis; INS-1E cytokine-induced death, ATP luminescence, 48 h; percent of positive-control rescue, neutral wells zero; AID 435005; protection from apoptosis, % (no concentration beside the values); 0.8% of 300,000 active;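 active = all replicates at 75% or more, or half of them and the mean; inconclusive = half reach 75% but not the mean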;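 also: 0% = cytokine-treated negative control wells and 100% = positive control rescue; higher means more ATP so stronger rescue from cytokine killing; wells of about 40 µL received 100 nL stock; the first replicate is given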
T cruzi repl = blocks replication of Trypanosoma cruzi | 1.4% of 300,000 active | inhibition, % (no concentration beside the values) | T. cruzi beta-gal in NIH3T3, luminescence, 90 h | AID 1885;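 active = mean inhibition across valid replicates above about 55%, limit read from the data; inconclusive = mean below that limit but half or more replicates reach it; inactive = mean below it, under half of replicates reach it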;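 also: signal also drops with host cell toxicity which is not excluded here; 0% = plate median of DMSO wells and 100% = zero luminescence signal; higher percent means less beta-gal luminescence so fewer parasites; stock transfer was 50 nL into about 50 µL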
A1 inh = inhibitors of the anti-apoptotic protein A1, read as caspase activation; MEF A1-2A-BIM cells, Caspase-Glo 3/7 luminescence, 3 h; percent of clofoctol response, vehicle zero; caspase activation, % (no concentration beside the values); 0.066% of 330,000 active;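 active = over half of replicate activation scores above 10%, or exactly half above 10 with the replicate mean above 10; inconclusive = replicate mean below 10 yet half the replicates above 10; inactive = over half of replicates below 10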;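 also: wells of about 30 µL received 50 nL stock; many hits fall short of the cut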
Active calls of the source: *; ? = inconclusive; nt = not tested or not shown.

structure	Vif TR-FRET	RanGTP-Imp inh	AF4-AF9 inh	Calb FLC	LANA-H2B inh	Beta apoptosis	T cruzi repl	A1 inh
C#CCONC(=O)c1cc(OCC(F)(F)F)ccc1OCC(F)(F)F	-2%	?	nt	3	3.2	1	8	0.3
Cc1ccc(OCC(=O)Nc2sc3c(c2C#N)CCC3)cc1C	10%	-0.6	nt	-4	3.2	nt	1	0.6
CCOc1ccc(N2C(=O)Nc3ccccc3C2(O)C(=O)NCc2ccc(OC)cc2)cc1 (stereo not drawn)	-4%	-4.1	1.7	-11	0.1	-3	-3	-1.1
O=C(c1ccc(F)cc1)N1CCN(Cc2ccccc2)CC1	nt	-0.2	3.9	-9	-7.7	2	-2	0.4
COc1ccc(CNC(=O)CN(c2cc(C)cc(C)c2)S(=O)(=O)c2c(C)[nH]c(=O)[nH]c2=O)cc1	-13%	1.9	-0.5	-5	1.4	-2	-20	0.3
Cc1cccc(N(CC(=O)NC2CCCC2)C(=O)CS(=O)CC(=O)Nc2ccc3c(c2)OCO3)c1C (stereo not drawn)	-4%	3.7	nt	6	0.4	-10	9	1.1
CCN(CC(=O)Nc1ccc(OC)cc1)CC(=O)Nc1ccc(Cl)cc1F	-4%	3.1	0.0	2	1.1	-4	5	0.5
CC1Cc2ccccc2N1C(=O)CSc1nnc2c(n1)[nH]c1ccccc12 (stereo not drawn)	9%	2.5	nt	-1	1.3	5	13	1.4
COc1ccc(C(=O)NC(=S)NNC(=O)[C@H]2C[C@@H]2c2ccccc2)cc1OC	26%	8.7	2.6	-2	0.1	18	-11	1.0
CCN(CCNC(=O)Cn1c(=O)sc2ccccc21)c1ccccc1	-17%	3.2	1.6	-18	-2.1	9	-10	0.3
COc1ccc(-c2oc(=O)n(C)c2-c2ccc(OC)cc2)cc1	nt	4.4	20	3	1.5	-7	11	1.2
Cc1ccccc1C(=O)O/N=C(\c1ccccc1)c1ccccn1	6%	0.0	nt	4	2.3	-1	5	0.8
Cc1cccc(CSCCNC(=O)c2ccc(CN3CCOCC3)cc2)c1	0%	3.4	3.3	-22	3.2	4	9	1.1
COc1ccc(NC(=O)c2c(C)oc3c2CCCC3)cc1	23%	-0.9	5.2	-17	-2.2	-4	7	-0.5
Cc1ccc(C(CNS(=O)(=O)c2ccc(Cl)cc2)N2CCN(C)CC2)cc1 (stereo not drawn)	-10%	-0.1	0.7	0	3.3	8	2	0.2
O=C(COC(=O)CSc1cccc2cccc(Cl)c12)Nc1ncc(C(F)(F)F)cc1Cl	10%	2.7	-3.0	-1	nt	-3	10	-0.1
CCN(CC)c1cc(C)c2ccccc2n1	-1%	-3.4	nt	-8	-1.2	1	-9	-0.6
Cn1ncc(Br)c1C(=O)Nc1cccc(C(F)(F)F)c1	17%	-0.3	-0.4	-15	6.3	-1	-3	-0.3
COc1ccccc1NS(=O)(=O)c1cc(N/C(=N\S(=O)(=O)c2ccccc2)c2ccc(F)cc2)ccc1Cl	20%	1.2	nt	6	-7.2	10	52	-0.5
CCOc1ccc(Oc2ccc(NS(=O)(=O)c3cc(C(=O)O)ccc3Cl)cc2)cc1	0%	nt	-3.7	nt	6.9	-3	nt	-0.9
O=C(O)CN1C(=O)/C(=C\c2cc([N+](=O)[O-])ccc2OCc2ccccc2Cl)SC1=S	nt	-1.5	3.0	18	-2.6	10	3	0.3
Cc1nn(CCC(=O)N2CCN(S(=O)(=O)c3ccccc3)CC2)c(C)c1C	nt	0.7	0.1	-6	-12	-5	1	0.0
CC(=O)c1ccc(N2CCN(CC(=O)Nc3ccccc3N3CCOCC3)CC2)cc1	-10%	?	1.3	4	nt	1	15	0.5
Cc1cc2c(C)cc(=O)oc2c2c1NCCC2	-5%	10	-28	30	0.9	5	9	0.3
Cc1c(/C=C2\SC(=Nc3cccc(C(=O)O)c3)NC2=O)c2ccccc2n1C	nt	2.4	12	1	-3.3	-5	-6	0.2
COCCCNc1nc(N)c([N+](=O)[O-])c(NCc2ccccc2)n1	-3%	-3.4	0.1	11	6.1	-7	-23	0.4
CCO[C@H]1OC(C(=O)N2CCN(Cc3ccc4c(c3)OCO4)CC2)=C[C@@H](c2ccc3c(c2)OCO3)[C@@H]1CCCO	-13%	-1.3	6.3	-6	-4.9	1	15	-0.1
CC(=O)C[C@H](O)CC(=O)[C@H]1OC(=O)[C@@H](C)CCCCc2ccccc21	-2%	nt	-2.0	nt	1.5	-6	nt	0.5
O=C(NC1C2CC3CC(C2)CC1C3)C1CC1 (stereo not drawn)	3%	0.0	nt	-9	-0.8	nt	1	0.4
Cc1ccc(Oc2nc3c(c(=O)n(C)c(=O)n3C)n2C)cc1C	8%	-1.0	2.7	-15	1.3	-9	2	-0.2
COc1ccc(CCNC(=O)C(=O)NCC2CCCO2)cc1OC (stereo not drawn)	32%	-2.7	nt	-1	41*	2	-4	0.4
COc1cccc(CN(C)C(=O)c2cccc(NC(=O)CC3SC(N4CCCCC4)=NC3=O)c2)c1OC (stereo not drawn)	-9%	nt	-8.0	nt	-1.7	-2	nt	-0.7
COc1ccccc1NC(=O)C1=C(C)NC(=O)NC1c1cc(C)cs1 (stereo not drawn)	?	1.0	nt	0	-4.3	-1	-21	-0.3
O=C(CCN1CCCCC1=O)NC1CCCN(Cc2ccc(Cl)cc2)C1 (stereo not drawn)	nt	3.4	1.8	-23	0.4	1	46	-0.9
CCn1c(=O)oc2cc(NC(=O)CCl)ccc21	73%	-1.9	-3.1	4	9.1	2	28	-0.7
COCCn1c(Cc2ccccc2)nnc1SCC(=O)NC1CC1	-1%	2.4	-0.9	-14	-2.4	-4	-3	0.1
CCc1nc(CN(C)C(=O)C2CCC(=O)N(Cc3cccc(F)c3)C2)no1 (stereo not drawn)	3%	-0.5	1.1	0	-6.5	-7	-10	-0.7
NS(=O)(=O)c1ccc(NC(=O)COc2ccc(Cl)cc2)cc1	2%	0.1	-3.8	6	-3.5	1	-8	0.5
Brc1cc(Br)c2ncnc(N3CCCCC3)c2c1	-58%	-3.1	nt	-10	5.8	13	2	0.1
Cc1cc(OCc2nnc(SCC(=O)OC3CCCCC3)o2)ccc1Cl	-6%	?	nt	-2	-2.6	-5	-2	-0.2
O=C(NC1CCN(C(=S)NCCc2ccccc2)CC1)C1CCCCC1	-9%	2.5	-1.3	-4	3.1	3	2	0.0
O=C(COC(=O)CC1CC2CCC1C2)NC(=O)NCc1ccco1 (stereo not drawn)	16%	1.0	nt	-5	-4.7	-3	1	1.8
COc1ccccc1/C=C/C(=O)OCC(=O)N1CCCCC1	-3%	nt	-5.3	nt	-0.3	2	nt	-0.2
CCCn1c(-c2ccncc2)n[nH]c1=S	-1%	2.0	-2.3	-23	3.8	-2	-12	0.6
O=C(O)c1ccccc1C(=O)c1ccc2c(c1)N(Cc1cccc(F)c1)C(=O)CO2	1%	1.2	2.5	8	-2.8	nt	8	2.2
O=c1cc(O)c2ccccc2n1Cc1ccccc1F	6%	1.0	-1.5	-1	-0.4	-3	-15	0.2
CCOc1ccc(NC(=O)C(C)O)c(NS(=O)(=O)c2ccc(CCNC(C)=O)cc2)c1 (stereo not drawn)	10%	-2.7	-38	17	-1.2	-14	-9	-0.9
COc1ccc(Cc2nnc(NC(=O)c3cccc([N+](=O)[O-])c3C)s2)cc1	-1%	0.4	nt	2	1.2	-6	1	1.0
Cc1ccc(Oc2nnc(-c3cccs3)c3ccccc23)cc1	-77%	-2.8	-5.3	-5	1.4	-6	-12	-0.1
Brc1ccc([C@H]2CN3CCSC3=N2)cc1	nt	-0.8	-5.4	nt	0.8	4	3	0.6
O=c1cc(CN2CCN(c3ccccc3)CC2)c2c(ccc3ccccc32)o1	-3%	nt	nt	14	1.1	5	nt	0.1
COc1ccc(NS(=O)(=O)c2cccc(C(=O)NNC(=O)c3cccn3C)c2)cc1	13µM*	0.2	-4.8	-5	1.0	-8	-8	0.3
Cc1ccc(N2C(=O)C(Cl)=C(Nc3c(C)n(C)n(-c4ccccc4)c3=O)C2=O)cc1	?	3.3	nt	8	-3.1	-15	-5	0.6
COc1ccccc1-c1nc(C(F)(F)F)c(OC)o1	-1%	3.0	nt	1	-3.5	2	0	0.4
O=C(Nc1nccs1)c1ccc(NC(=O)c2ccco2)cc1	21%	-1.3	nt	?	4.1	2	-10	-2.3
C=CCOc1ccc2c(OC)c3ccoc3nc2c1OC	?	1.7	nt	-5	8.9	5	14	0.6
CC(=O)/C(=N/Nc1ccccc1)N1CCOCC1	13%	1.0	nt	-50	2.1	3	2	0.1
Cc1ccc(C(=O)NC2(C(F)(F)F)N=C3SCCN3C2=O)cc1 (stereo not drawn)	4%	1.1	nt	-6	-2.7	-8	-10	0.0
CCC1CSC(=Nc2ccc(C)cc2)N1C(=O)CN1C(=O)NC2(CCCC2)C1=O (stereo not drawn)	nt	3.5	6.7	-6	-0.3	-6	8	-1.2
CC(=O)NC1C(=O)N=C(SCc2ccccc2)NC1=O (stereo not drawn)	-2%	-2.0	nt	-17	6.1	2	-14	-0.1

(further entries)
structure	Vif TR-FRET	RanGTP-Imp inh	AF4-AF9 inh	Calb FLC	LANA-H2B inh	Beta apoptosis	T cruzi repl	A1 inh
Cc1cccc(NC(=O)c2ccc(F)c(S(=O)(=O)NCc3ccco3)c2)c1	nt	-0.5	-3.1	0	-1.0	-8	-12	-5.4
COc1cc(/C=C/C(=O)O)ccc1OS(=O)(=O)c1cc(C)ccc1C	8%	-0.6	-11	6	-4.5	3	4	0.1
CC(C)Cn1c(Cc2ccccc2)n[nH]c1=S	-3%	?	-1.8	-23	-4.8	-2	4	2.6
COc1ccc(CNC(=O)COc2cc3c(c4oc(=O)cc(C)c24)CCC(C)(C)O3)cc1OC	nt	-2.9	3.2	-5	-1.9	0	-12	-0.7
CCOC(=O)C1CCCN(C(=O)Cc2ccc(C)cc2)C1 (stereo not drawn)	3%	-1.9	nt	-2	1.0	-4	-4	0.8
O=C(CC(c1ccccc1)c1ccccc1)NCCOCc1ccccc1	-7%	-1.6	-16	13	-7.1	nt	-13	1.0
COc1ccc(OCC(=O)Nc2cc(S(=O)(=O)N3CCCCC3)ccc2OC)cc1	-3%	-1.3	1.0	-2	0.8	nt	-7	-0.4
CC(=O)c1cccc(NC(=O)c2ccc(N(C)S(=O)(=O)c3ccc(C)cc3)cc2)c1	nt	2.1	1.6	16	3.1	5	-6	0.1
CC(C)(C)c1ccc(Cn2nc(CC(=O)O)c3ccccc3c2=O)cc1	-11%	1.4	1.7	-17	-1.5	-5	8	-0.1
CN1CCN(S(=O)(=O)c2cccc(C(=O)Nc3ccc(Br)cc3Br)c2)CC1	nt	0.0	1.1	21	4.0	-7	-19	-0.1
O=C(Cc1ccc(Br)cc1)OCC(=O)N1CCc2ccccc2C1	15%	1.2	nt	-14	1.6	3	-8	-0.3
O=C(CC1SC(N2CCOCC2)=NC1=O)Nc1ccc(Cl)c(C(F)(F)F)c1 (stereo not drawn)	nt	nt	-0.9	nt	22*	-14	nt	0.9
